Biofilm kill mix = mixtures killing C. albicans biofilm | C. albicans biofilm persisters + clotrimazole, fluorescence viability; primary screen in compound mixtures of four per well | inhibition, % at 7.6 µM | 120,000 compounds, 0.02% hits | AID 1242;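 active = inhibition above 30.3% in the primary screen of four-compound pools, then above 30% when the compound was retested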;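 note: compounds exposed to preformed 24 h biofilms for 48 h; the number belongs to the whole pool; some results filed as inactive read as strong as hits; inactives centre near 12; 0% = biofilm with clotrimazole alone and 100% = kill control; retested singly at about 60 µM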
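Assay system: C. albicans biofilms / Medium: RPMI/MOPS medium, pH 7.0 / Schedule: biofilm formation 24 h, compound exposure 48 h, 37 °C / Measured by: Alamar Blue fluorescence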
Active calls of the source: *; & = joins results of further samples.

SMILES | Biofilm kill mix
Cn1c(CNC(=O)c2cccs2)nnc1SCC(=O)Nc1ccccc1 | 6
Cc1ccc(Cn2ccc(NC(=O)c3nn(C)cc3[N+](=O)[O-])n2)cc1 | 15
Cc1cccc(CCNC(=O)CCc2nnc(CCc3ccccc3)o2)n1 | -9
NC(=O)CCC(NC(=S)Nc1ccccc1)C(=O)O (stereo not drawn) | 8
COc1ccccc1/C=C/C(=O)OCCCN(C)C | 12
COc1ccc(Cc2cnc(N)s2)cc1 | 27
COc1cccc(C(=O)NC(=S)Nc2nnn(C)n2)c1 | 10
O=C(Nc1ccccc1)Nc1ccc(Cl)c(S(=O)(=O)N2CCOCC2)c1 | 13
Cc1cc(C)cc(OCC(O)CN2CCN(Cc3ccc4c(c3)OCO4)CC2)c1 (stereo not drawn) | 16
COc1cc([N+](=O)[O-])ccc1NC(=O)CSc1n[nH]c(C(C)C)n1 | -7
CCN(C(=O)COC(=O)c1cc(-c2ccc(C)o2)nc2ccccc12)C1CCS(=O)(=O)C1 (stereo not drawn) | 9
COCc1nnc(NC(=O)CC(C)C)s1 | 8
NC(=O)C(CC(=O)O)NC(=O)[C@@H]1CCOc2c(I)cc([N+](=O)[O-])cc2C(=O)N[C@@H](CO)C(=O)N[C@@H](Cc2ccc(O)cc2)C(=O)N1 (stereo partly drawn) | 16
Cc1[nH]c(=O)[nH]c(=O)c1CSCC(=O)OCC(=O)Nc1ccccn1 | 22
Cc1nc(C)c(CC(=O)N/N=C/c2ccc(O)cc2)c(=O)[nH]1 | 12
N#C/C(=C/c1cn(-c2ccccc2)nc1-c1cccc(S(=O)(=O)N2CCOCC2)c1)C(=O)NCc1ccco1 | 0
CCc1c(O)c(-c2ccccc2)c(=O)n(-c2ccccn2)c1-c1ccccc1 | 22
O=C(CCCCCN1C(=O)c2ccccc2C1=O)Nc1ccc(F)cc1 | 9
NC(=O)C1=C[C@@H](c2csc3ccccc23)C[C@@H](OCc2ccc(CO)cc2)O1 | 18
COc1cccc(CC(NC(C)=O)C(=O)NC2CCN(c3c4c(nc5ncnn35)CCC4)CC2)c1OC (stereo not drawn) | 7
O=C(c1ccc([N+](=O)[O-])cc1)N(c1ccccn1)c1ccccn1 | 7
CCS(=O)(=O)C1=NN2C(=N)/C(=C\c3ccc(SCc4ccco4)o3)C(=O)N=C2S1 | -4
O=C(NCCCn1ccnc1)C1CC(c2ccccc2Cl)=NO1 (stereo not drawn) | 5
CCC(C)C(NC(=O)c1ccccc1NC(=O)c1ccc(C)cc1)C(=O)O (stereo not drawn) | 4
COc1cc(C(F)(F)F)c(C(=O)NCc2cccc(Cl)c2)cn1 | 37
Further records
SMILES | Biofilm kill mix
COc1ccc(-c2nc(N)n(C(=O)c3ccccc3Cl)n2)cc1 | 15
Cc1ccc(-n2c(C(C)n3nc(C)c([N+](=O)[O-])c3C)n[nH]c2=S)cc1 (stereo not drawn) | 6
CCc1nnc(NC(=O)CSc2nnc(Cc3cc(=O)[nH]c(=O)[nH]3)n2-c2ccc(OC)cc2)s1 | -6
CCCCCCN(C(=O)CCCCCN1C(=O)NC(c2cccc([N+](=O)[O-])c2)C(C(=O)OCc2ccccc2)=C1C)C(C(=O)NCCCC)c1ccc(OCC(=O)OC)c(C(=O)OC)c1 (stereo not drawn) | 18
CSc1ccc(/C=C/C(=O)c2ccc(O)cc2)cc1 | 16
COc1ccc(C(=O)Nc2ccccc2C(=O)NC(Cc2c[nH]c3ccccc23)C(=O)O)cc1 (stereo not drawn) | 2
O=C(/C=C/c1ccc(F)cc1)N1CCN(c2ncccn2)CC1 | 14
CC(/C=C/c1ccc(OCc2ccccc2)cc1)=N\O | 9
Cn1c(N)c(S(=O)(=O)NCc2ccc(Cl)cc2)c(=O)n(C)c1=O | -2
CCCCN(C(=O)CN1CCOCC1)c1c(N)n(CC(C)C)c(=O)[nH]c1=O | 10
O=C(/C=C/Nc1ccc(S(=O)(=O)Nc2ncccn2)cc1)c1ccc2ccccc2c1 | 24
COc1ccc(CC(=O)Nc2ccc(NC(=O)c3ccccc3F)cc2)cc1 | 22
NC(=O)COc1ccc(NC(=O)c2ccccc2-c2ccccc2)cc1 | -9
COc1cc2ncnc(NCc3cccs3)c2cc1OC | 16
COC(=O)c1sccc1NC(=S)Nc1cc(C)ccc1OC | 10
Cn1ncc(Br)c1C(=O)N1CCc2ccccc21 | 10
COc1ccc(-c2cc(-c3nnc(COC(=O)C4CC4)o3)c3ccccc3n2)cc1OC | 16
Cc1[nH][nH]c(=O)c1[C@@H](c1ccccc1[N+](=O)[O-])C(C#N)C#N | 12
COCCNC(=S)N1CCN(C(=O)C(=O)Nc2ccc(C(=O)OC)cc2)CC1 | 8
Cc1nnc2ccc(-c3cccc(NC(=O)c4ccco4)c3)nn12 | -1
COc1ccc2cc(C(=O)C3CCCN(C(=O)c4cnccn4)C3)ccc2c1 (stereo not drawn) | 2
COC(=O)c1ccc(NC(=O)CC2C(=O)N(C)C(=S)N2Cc2ccc(S(N)(=O)=O)cc2)cc1 (stereo not drawn) | 4
CC1CCN(c2ccc(/C=C(\C#N)c3nn(-c4ccccc4)c(N)c3C#N)cc2[N+](=O)[O-])CC1 | 20
Cc1ccc(S(=O)(=O)N2CCOCC2)cc1NC(=O)COC(=O)c1ccc(OCc2c(C)noc2C)cc1 | 8
O=S(=O)(c1ccccc1F)N1CCN(C(=S)NCc2ccccc2)CC1 | 11
The listing continues:
SMILES | Biofilm kill mix
O=C(COc1ccc(F)cc1)NN1C(=O)CSC1=S | 16
Cc1cc([N+](=O)[O-])cnc1Sc1nccn1C | 19
CCn1nc(C)c(CN2CCc3c([nH]c4ccccc34)C2C(C)(C)C)c1C (stereo not drawn) | 13
O=C(N/N=C/c1ccccc1F)c1ccc(COc2ccccc2Cl)o1 | 11
CC(OC(=O)c1cc(-c2cccnc2)nc2ccccc12)C(=O)Nc1ccc2ccccc2c1 (stereo not drawn) | 13
O=C(CNC(=O)c1ccccc1)OCC(=O)N1N=C(c2ccc(Cl)cc2)CC1c1ccco1 (stereo not drawn) | -8
Cc1cccc(C)c1NC(=O)CNC(=O)Cc1ccc(Br)cc1 | 15
Nc1nc(-c2ccco2)nn1S(=O)(=O)c1ccc(Cl)cc1 | 12
COc1ccc(CN2C(=O)CCCc3ccccc32)cc1 | 17
CCC1(CC)NC(=O)N(CC(=O)OCC(=O)Nc2ccccc2[N+](=O)[O-])C1=O | 10
NS(=O)(=O)c1ccc(NC(=O)COC(=O)C23CC4CC(CC(C4)C2)C3)cc1 | 14
COc1ccc(NC(=O)CC(C)=O)c(OC)c1 | 11
N#Cc1ccccc1/C=C/C(=O)N1CCOCC1 | 20
N/C(=N\OC(=O)COc1ccc(Br)cc1Cl)c1ccncc1 | 10
COc1cccc(NC(=O)Nc2nnc(CC(=O)Nc3ccccc3)s2)c1 | 15
O=C(CS(=O)(=O)c1ccc2ccccc2c1)N1CCCCCC1 | 18
CCOc1ccc2nc(Cl)sc2c1 | 16
NCCNC[C@@H]1COC2(CCCCCCCCCCC2)O1 | 13
CCN(CC)CCCN=Cc1c(O)n(-c2cccc(C)c2)c(=O)c2ccccc12 | 22
CCOc1ccc(NC(=O)CCC(=O)NNC(=O)Nc2ccc(Cl)cc2)cc1 | 8
COc1cccc(NC(=S)N(CCCN2CCCC2)Cc2ccco2)c1 | 12
O=C(CCn1c(=S)oc2ccccc21)NC1CCCCCC1 | 11
CCNc1nc(Oc2ccc(OC)cc2)cc(C(F)(F)F)n1 | 19
COc1cccc(CNC(=O)Cn2ncc3c(=O)oc4ccccc4c32)c1 | 17
COc1cccc(NC(=O)CNS(=O)(=O)c2ccc(Cl)cc2)c1 | 21

Taken from above:
Nc1nc(-c2ccco2)nn1S(=O)(=O)c1ccc(Cl)cc1 in Biofilm kill mix is listed with 12
Cc1cc([N+](=O)[O-])cnc1Sc1nccn1C in Biofilm kill mix is listed with 19
COc1ccc(CN2C(=O)CCCc3ccccc32)cc1 in Biofilm kill mix is listed with 17
NCCNC[C@@H]1COC2(CCCCCCCCCCC2)O1 in Biofilm kill mix is listed with 13

Going on with the list.
SMILES | Biofilm kill mix
COC(=O)c1sccc1NC(=O)Cc1ccc(OC)c(OC)c1 | 17
O=C(Cc1ccccc1)NNC(=O)Nc1ccccc1 | 20
O=C(Cc1c[nH]c2ccccc12)Nc1ccccc1N1CCOCC1 | 7
CN(CCC#N)C(=O)COC(=O)c1nn(-c2ccccc2)c(=O)c2ccccc12 | 6
O=C(Nc1cccc(S(=O)(=O)N2CCCCC2)c1)C1CC(=O)N(Cc2ccco2)C1 (stereo not drawn) | -1
C[C@H]1CN=C2N(CCNC(=O)CCC3CCCCC3)[C@H](Cc3ccc(O)cc3)CN21 | 18
Cc1ccc2c(C)nc(N/C(N)=N/S(=O)(=O)c3ccc([N+](=O)[O-])cc3)nc2c1 | 12
CN(Cc1ccc(OC(F)F)cc1)Cc1nc2c(Br)cc(Br)cc2c(=O)[nH]1 | 13
O=C(O)/C=C/C(=O)N1CCN(C(=O)/C=C/C(=O)O)CC1 | 18
CC(=O)N1N=C(c2ccco2)CC1c1ccc(Br)cc1 (stereo not drawn) | -7
O=C(O)c1ccc(N/N=C/c2cn(-c3ccccc3)nc2-c2cccs2)cc1 | 3
COc1ccc(-c2nnc(OCc3ccccc3)c3ccccc23)cc1 | 5
Cc1c2ccccc2cc[n+]1CCCS(=O)(=O)[O-] | 17
O=c1onc(-c2ccc(Cl)cc2Cl)n1-c1cccnc1 | 25
O=C(NCC1(c2ccccc2)CCCC1)c1ccccc1 | 11
COc1cc(CNn2cn[nH]c2=S)cc(Cl)c1OCc1ccc(F)cc1 | 6
O=C(COc1ncnc2cc([N+](=O)[O-])ccc12)NC1CCCCC1 | 20
C[C@]12CCC3C(CC=C4C[C@@H](O)CC[C@@]43C)C1CCC2[C@]1(C)CCC(=O)O1 (stereo partly drawn) | 10
O=C(C1CCCCC1)N1CC(=O)N2CCc3ccccc3C2C1 (stereo not drawn) | 17
N#CCn1cnc2sc(-c3ccccc3)cc2c1=O | -10
O=C(c1cccc(S(=O)(=O)N2CCOCC2)c1)N1CCN(Cc2ccc3c(c2)OCO3)CC1 | 7
Nc1nc(SCC(=O)NCc2ccccc2Cl)[nH]c(=O)c1NC(=O)c1ccccc1F | 5
OC[C@H]1O[C@@H](n2cnc3c(Nc4ccccc4)ncnc32)[C@H](O)[C@@H]1O | 16
COCCC(=O)Nc1ccc2c(c1)CN(C(=O)CSC)CC2 | 16
O=C(O)CSc1nc2ccccc2s1 | 25&4

Arranged by formula weight (descending): part of the list above
SMILES | Biofilm kill mix
COCCC(=O)Nc1ccc2c(c1)CN(C(=O)CSC)CC2 | 16
O=C(O)/C=C/C(=O)N1CCN(C(=O)/C=C/C(=O)O)CC1 | 18
N#CCn1cnc2sc(-c3ccccc3)cc2c1=O | -10

Returning to the listing; the five compounds before the break are reprinted first.
SMILES | Biofilm kill mix
O=C(c1cccc(S(=O)(=O)N2CCOCC2)c1)N1CCN(Cc2ccc3c(c2)OCO3)CC1 | 7
Nc1nc(SCC(=O)NCc2ccccc2Cl)[nH]c(=O)c1NC(=O)c1ccccc1F | 5
OC[C@H]1O[C@@H](n2cnc3c(Nc4ccccc4)ncnc32)[C@H](O)[C@@H]1O | 16
COCCC(=O)Nc1ccc2c(c1)CN(C(=O)CSC)CC2 | 16
O=C(O)CSc1nc2ccccc2s1 | 25&4
CCn1c(SCC(=O)Nc2nc(C)c(C)s2)nc2cccnc21 | 16
CCOc1cc(/C=N/NC(=O)c2nn(C)cc2Br)ccc1OCc1ccccc1 | 14
Cc1ccc(S(=O)(=O)NC(=O)Nc2nccs2)cc1 | 20
CCOC(=O)C1=C(C)Nc2nc(C)nn2C1c1ccc(C)cc1 (stereo not drawn) | 11
CCOC(=O)CN(C#N)c1nc(N(C)C)nc(N(C)C)n1 | 0
Cc1ccc(C(=O)C(OC(=O)c2cnccn2)c2ccccc2)cc1C (stereo not drawn) | 2
Cc1nnc2n1CCCCC2 | 7
Cn1c(=O)c2c(nc(NCCOc3ccc(C(C)(C)C)cc3)n2C)n(C)c1=O | 14
Cc1ccc(C2=NN(CC(=O)NCc3cccnc3)C(=O)CC2)cc1 | 24
COc1ccc(Cl)cc1C(=O)NNC(=O)c1cccc(S(=O)(=O)N(C)C)c1 | 9
Cc1ccc(S(=O)(=O)NNC(=S)Nc2c(Cl)cccc2Cl)cc1 | 4
CCOc1nc(NCCO)nc(NCCC2=CCCCC2)n1 | 8
CCc1cc(C(=O)c2ccc(OC)cc2)c(NC(=O)CC(C)(C)CC(=O)O)s1 | 23
Cn1c(SCC(=O)Nc2ccc(Br)cc2)nc(O)cc1=O | 15
COc1ccccc1CNC(=O)CN1C(=O)CSc2ccc(S(=O)(=O)N3CCCC3)cc21 | 7
COc1cccc(-n2c(CN3CCN(c4ccccc4)CC3)nc3ccc([N+](=O)[O-])cc3c2=O)c1 | 15
CCOC(=O)C1(CCOc2ccccc2)CCN(Cc2cccc(-n3cccn3)c2)CC1 | 26
COC(=O)Cc1cc(=O)[nH]c(/N=C(\N)Nc2ccccc2C)n1 | 11
Cc1nnc(C)c2c(C)n(-c3ccc4ncccc4c3)c(C)c12 | 26
COc1ccccc1-n1cc(CN2CCN(CC=C(C)C)C(CCO)C2)cn1 (stereo not drawn) | 29
CC(=O)Nc1ccc(S(=O)(=O)Nc2nccc(/C=C/c3ccc(Cl)cc3)n2)cc1 | 17
CN(C)c1ccc(C(=O)/C=C/c2ccco2)cc1 | 0
CCOc1ccc2nc(NC(=O)c3cccc(-c4cc5ccccc5oc4=O)c3)sc2c1 | 14
Cc1ccc(-n2c(SCC(=O)N3CCOCC3)nnc2-c2ccncc2)cc1C | 20
CC1CCCCC1NC(=O)c1ccc(S(=O)(=O)NCC2CCCO2)cc1 (stereo not drawn) | 22
CCn1c(SCC(=O)Nc2ccc(OC)cc2)nc2nc3c(cc2c1=O)COC(C)(C)C3 | 11

Screening data (PubChem BioAssay)

This is a subset. The share of hits here may be higher or lower than overall.
